Bioassay records as filed in PubChem BioAssay.
NPR1 antag = human Npr1 receptor antagonism; P16066; HEK293 hNpr1 GloSensor cGMP, ANP-stimulated luminescence; Potency, µM (titrated, usually from 46.3 µM), inactives show at the highest dose activity change, negative = inhibition, most hits filed as inhibitors; 76,000 tested, 1.6% active; active = well fitted inhibition curve with a large enough effect; inconclusive = small, poorly fitted or top-dose-only effect; inactive = no such curve, though single readings can be large or run the other way;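 note: nearly all actives have a fitted effect of over 60% in size; nearly all hits also lower the signal before the agonist is added; a reference antagonist and vehicle were the controls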
Target sequence (P16066 whole entry, looked up): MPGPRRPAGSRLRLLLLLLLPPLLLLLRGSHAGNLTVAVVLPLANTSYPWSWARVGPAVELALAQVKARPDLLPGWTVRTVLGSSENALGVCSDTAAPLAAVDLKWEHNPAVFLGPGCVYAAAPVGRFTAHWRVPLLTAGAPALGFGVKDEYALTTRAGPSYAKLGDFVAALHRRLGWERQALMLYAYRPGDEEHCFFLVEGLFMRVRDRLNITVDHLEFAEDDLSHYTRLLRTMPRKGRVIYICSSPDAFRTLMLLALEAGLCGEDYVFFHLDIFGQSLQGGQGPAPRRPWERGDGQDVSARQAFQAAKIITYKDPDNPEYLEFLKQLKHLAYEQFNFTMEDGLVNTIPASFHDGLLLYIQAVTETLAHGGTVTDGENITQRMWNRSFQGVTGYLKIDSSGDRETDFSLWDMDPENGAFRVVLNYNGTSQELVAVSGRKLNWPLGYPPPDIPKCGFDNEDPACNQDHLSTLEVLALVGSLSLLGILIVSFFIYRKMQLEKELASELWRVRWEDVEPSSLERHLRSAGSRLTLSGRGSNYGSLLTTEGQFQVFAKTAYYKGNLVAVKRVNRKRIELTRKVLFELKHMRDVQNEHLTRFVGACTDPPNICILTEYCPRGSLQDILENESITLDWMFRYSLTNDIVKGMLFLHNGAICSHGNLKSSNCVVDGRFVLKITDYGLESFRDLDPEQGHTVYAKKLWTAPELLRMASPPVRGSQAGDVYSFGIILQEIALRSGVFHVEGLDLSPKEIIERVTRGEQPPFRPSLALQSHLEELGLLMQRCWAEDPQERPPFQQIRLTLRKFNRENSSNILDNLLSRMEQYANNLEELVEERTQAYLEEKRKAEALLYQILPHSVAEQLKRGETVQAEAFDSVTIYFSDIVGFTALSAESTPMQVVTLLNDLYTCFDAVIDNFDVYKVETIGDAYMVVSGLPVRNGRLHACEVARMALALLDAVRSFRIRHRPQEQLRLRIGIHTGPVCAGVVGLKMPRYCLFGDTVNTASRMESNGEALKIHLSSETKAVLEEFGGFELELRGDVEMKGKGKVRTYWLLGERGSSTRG
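HEK293 cells stably expressing human Npr1 and cGMP GloSensor pGS-40F, loaded 2 h with 2% GloSensor reagent, given compound 30 min at room temperature. Luminescence read before and 20 min after 0.1 nM hNppA.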
The depositor's hits bear a star; ? = inconclusive; & = joins results of further samples; [ ] = remark or other dose. % is set by controls: 0 for no effect and ±100 for the full control effect; potency is the fitted concentration of half-maximal effect. Only part of the results is shown; rates above refer to the full screens.

SMILES	NPR1 antag
Cc1cc(C)n(Cc2cccc(C(=O)N3CCCC(c4ncc[nH]4)C3)c2)n1 (stereo unspecified)	0%
CN(Cc1ccccc1)C(=O)C1CC(=O)N(c2n[nH]c3cc(Br)ccc23)C1 (stereo unspecified)	-16%
CCOC(=O)C1(Cc2ccc(F)cc2F)CCCN(Cc2cccc(OC)c2O)C1 (stereo unspecified)	-18%
O=C(COc1ccccc1)N1CC(F)(F)C[C@H]1c1nnc(C2CC2)o1	-4%
COc1ccc(CC2CCOC3(CCNCC3)C2)cc1 (stereo unspecified)	1%
Fc1ccc(-c2noc(-c3nnn4c3COC(c3ccc(Cl)cc3)C4)n2)cc1 (stereo unspecified)	-10%
CC(C)(C)CN[C@H]1C[C@@H](Cc2cc(CN3CCOCC3)on2)C1(C)C	-1%[70.6 µM]
CN1CCC(NC(=O)c2cccc3c2CCN3C(=O)C2CC2)CC1	4%
COc1ccccc1C(=O)N1[C@@H]2CC[C@H]1CC(NC(=O)c1ccncc1)C2 (stereo partly specified)	1%
CCC1Oc2ccc(NC(=O)c3c(F)cccc3F)cc2CN(Cc2ccc3c(c2)OCO3)C1=O (stereo unspecified)	-6%
O=C(Nc1ccccc1F)N1CCc2nnc(C3CC3)n2CC1	1%
Fc1ccc(-c2nnc3ccc(NCc4cnccn4)nn23)nc1	2%[70.6 µM]
COc1cccc(-c2cn3c(n2)N(C(=O)c2ccoc2)CCC3)c1	-2%
C=CCNc1ncnc2c1CCN(C(=O)COCC1CCCO1)CC2 (stereo unspecified)	2%
CC(C)C[C@@H]1N[C@H](C(=O)O)Cc2cn(Cc3ccncc3)c3cccc1c23	5%
CC1=C[C@@H](CN2CCN(c3ccccn3)CC2)[C@H](C(C)C)C[C@H]1Cc1nnc(-c2ccc(C)cc2)o1	-28%
Cn1nc(C2CCN(C(=O)c3cnccn3)CC2)c2c1CCOC2	1%
CN(Cc1cccnc1)c1nc2c(c(=O)[nH]1)CCN(Cc1cc(F)cc(F)c1)CC2	3%
COc1ccccc1-c1nc(-c2c(C)noc2C)cc2cc(CN(C)C)oc12	1%[70.6 µM]
Cc1ccccc1CN1CCC(N2CCCC(C(=O)NC3CC3)C2)CC1 (stereo unspecified)	-15%
CC(C)CC(NC(=O)C1=NNC(=O)CC1)c1nnc2n1CCNCC2 (stereo unspecified)	-5%
CSc1ncccc1C(=O)N1CCc2nc[nH]c2C1	2%
CSc1ccc2cc(CN(C)CCO)c(-c3ccc(Cl)cc3)nc2c1	3%
Nc1nc(NCc2ccc(Cl)cc2Cl)cc(C2CC(O)C2)n1 (stereo unspecified)	7.1µM*
O=C1CCC2(CCCO2)CCN1Cc1ccc(OC(F)(F)F)cc1 (stereo unspecified)	6%

Entries above that contain sulfur (2):
SMILES	NPR1 antag
CSc1ncccc1C(=O)N1CCc2nc[nH]c2C1	2%
CSc1ccc2cc(CN(C)CCO)c(-c3ccc(Cl)cc3)nc2c1	3%

(more compounds)
SMILES	NPR1 antag
COc1ccccc1CN1CCC(c2nn(Cc3ccccc3)c(=O)[nH]2)CC1	13%
CS(=O)(=O)N1C[C@@H]2CN(C(=O)CCn3cccn3)C[C@]2(C(=O)O)C1	-3%
Cc1ccccc1S(=O)(=O)N1CCC(CCC(=O)NCCN2CCOCC2)CC1	0%
CCc1noc([C@@H]2CC(F)(F)CN2C(=O)CCn2ccnc2)n1	0%
O=C(c1ccccn1)N1CCN(C(=O)N2CC3CC(C2)[C@H]2CCCC(=O)N2C3)CC1 (stereo partly specified)	-10%
Cc1noc(-c2cccs2)c1C(=O)NCCc1cccs1	0%
Cc1ccc(C(=O)NC(C)c2nc(-c3ccccn3)no2)cc1N1CCNC1=O (stereo unspecified)	5%
CN(C)CCNC(=O)C1CCc2sc(C(=O)N3CCOCC3)cc2C1 (stereo unspecified)	-2%
CN(CCc1ccccn1)C(=O)c1ccc(N2CC3CC(C2)[C@H]2CCCC(=O)N2C3)nc1 (stereo partly specified)	7%
COCC1CCCN(Cc2nc(-c3ccccc3Cl)oc2C)C1 (stereo unspecified)	5%
COc1ccccc1C(=O)N1CC(CNC(=O)C2CC2)C2(C1)CN(c1ccccc1)C2 (stereo unspecified)	-3%[70.6 µM]
O=C(C1CCCCC1)N1Cc2[nH]cnc2C[C@H]1c1nc(-c2ccc3ccccc3c2)no1	-22%[70.6 µM]
c1cncc(CNC[C@H]2Cn3c(-c4ccc5c(c4)OCCO5)cnc3CO2)c1	-1%[70.6 µM]
c1ccc(-c2cnc3n2C[C@H](CNCc2cccs2)OC3)cc1	-4%[70.6 µM]
CC(=O)Nc1cccc(-c2nc(-c3c(C)noc3C)cc3c2cc(C)n3CCN(C)C)c1	7%[70.6 µM]
Fc1cccc(CN2CCNc3cnc(OCc4cccnc4)cc3C2)c1	-16%[70.6 µM]
O=C(CCc1nnn2c1CN(C(=O)NCc1ccccc1)CC2)N1CCOCC1	3%
COc1ccc(CNC(=O)CCC2CCN(S(=O)(=O)c3ccccc3)CC2)cc1OC	-11%
Cc1noc(C)c1CC(=O)N1CCCCCCNC(=O)[C@@H]2CCCC[C@@H]21	1%
CC(C)NC(=O)CCC[C@@H]1[C@H]2CCCN3CCC[C@@H](CN1C(=O)c1cccnc1)[C@@H]23	0%
Cn1nccc1C(O)c1cc2n(n1)CCN(C(=O)CCN1CCCO1)C2 (stereo unspecified)	1%
COc1ccc(S(=O)(=O)N2CCOC[C@H](Oc3ccccc3)C2)cc1	-9%[70.6 µM]
O=C(NCCc1ccccc1)[C@H]1CN(Cc2ccccc2)C[C@H]1C(=O)O	0%
CN(c1ccccc1)c1ccc2c(n1)CN(Cc1ccc(F)cc1)C(=O)CO2	?
Cn1cnc(S(=O)(=O)N2CCCCC2c2nc(-c3cnccn3)n[nH]2)c1 (stereo unspecified)	3%
Additional entries follow:
SMILES	NPR1 antag
CNC(=O)[C@@H](c1ccc(Cl)cc1)N1CCC[C@H]1C(=O)N1CCC1	-1%[70.6 µM]
Cc1ccc2oc(C(=O)N(C)Cc3cc(-c4ccccc4)no3)c(C)c2c1	3%
C=CCOc1cc(C)c2c(c1C)[C@H](O)C([C@H](C)C(=O)N(C)Cc1ccccc1)CC2 (stereo partly specified)	-5%[70.6 µM]
COCCN(C)C[C@@H]1CN(C(=O)CC(F)(F)F)C[C@@H]1CO	0%
COC(=O)c1ccc(NC(=O)CCn2ccn3nc4c(c3c2=O)CCCC4)cc1	-2%
O=C(NC1CCCN(c2nc3ncccc3o2)C1)c1ccccc1Cl (stereo unspecified)	30%
O=C(NC[C@H]1OC[C@@H](N(Cc2ccccn2)Cc2ccccn2)[C@@H]1O)C1CC1	6%[70.6 µM]
COC(=O)[C@H]1CN(C(=O)N2CCOCC2)CCN1C(=O)c1cccnc1	1%[70.6 µM]
COCc1ccc2c(c1)c(OC(C)(C)C(=O)NCCCn1ccnc1)nn2Cc1ccccc1	-1%
COc1cccc([C@@H]2CN(C(=O)c3cnn(C)c3)C[C@H]2C(=O)O)c1	10%
O=C(Cn1nc2n(c1=O)CCCCC2)Nc1cccc(F)c1	-1%
COc1cc(-c2onc(C)c2C(=O)N(C)Cc2ccccc2)cc(OC)c1OC	-19%
O=C1NC2(CCN(C(=O)c3ccccc3)CC2)Oc2ccccc21	-4%[70.6 µM]
Cc1ncc2n1C(=O)N(C1CCN(Cc3cccc4ccccc34)CC1)C2	0%&-21%
COC[C@@H]1CN(C(=O)C2(c3ccc(OC)cc3)CC2)C[C@H]1C(N)=O	-4%
CN(C)C[C@@H]1CN(S(C)(=O)=O)C[C@H]1NC(=O)c1ccc(Cn2ccnc2)o1	2%
COCC1CCCN(Cc2nc(C(c3ccccc3)c3ccccc3)no2)C1 (stereo unspecified)	16%
CS(=O)(=O)CCc1nc(-c2ccco2)nn1-c1cccc(F)c1	3%
COc1cccc(C2Cn3nnc(-c4nc(-c5ccc(C(F)(F)F)cc5)no4)c3CO2)c1 (stereo unspecified)	3%
O=C(c1ccc(F)c(F)c1)N1CCN(c2cc(-c3cccs3)[nH]n2)CC1	0%
O=C(c1ccc2ccccc2n1)N1CCCC(Cc2noc(C3CC3)n2)C1 (stereo unspecified)	0%
COCCNc1ncc(-c2cccc(O)c2)c2c1OCC2	0%[70.6 µM]
CN1C(=O)c2cccn2CC1C(=O)NCCCN1CCc2ccccc2C1 (stereo unspecified)	1%
COc1ccc(-c2noc([C@@H]3CCCN3C(=O)C3CCN(C(=O)c4ccccc4)CC3)n2)cc1	-9%
c1cncc(CN2CCc3c(sc4ncnc(N5CCCC5)c34)C2)c1	0%
Carrying on:
SMILES	NPR1 antag
O=C(NCC1CC1)c1cc2cn(C3CC3)cc2s1	-6%
COc1cccc(C(=O)N2CCOC[C@H](Oc3ccc(C(F)(F)F)cn3)C2)c1	4%[70.6 µM]
O=C(Nc1ccccc1)O[C@@H]1CO[C@H]2[C@@H]1OC[C@@H]2n1nnnc1SC1CCCC1	?
CC(=O)N1CCc2c(c3ccccc3n2C)C1	-17%
CC(C)c1ccc(CNC(=O)CCn2ccn3nc4c(c3c2=O)CCCC4)cc1	-14%
Cn1nc(C(=O)N2CC[C@@H]3CN(S(C)(=O)=O)[C@@H]3C2)c2ccccc21	2%
Cc1ccc(C(=O)N2CCc3cn(C)c4cccc(c34)C2)cc1	-7%
COc1ccc(S(=O)(=O)NC[C@H]2O[C@@H](CO)[C@@H](O)[C@H]2N2CCN(c3ccccn3)CC2)cc1	17%
Cc1ccc(C)c(Cn2ccn3nc(-c4ccc(F)cc4)c(CO)c3c2=O)c1	?
COCCO[C@H]1C(=O)N(C2CCN(C(=O)c3cnn(C)c3)CC2)[C@H]1c1ccncc1	-1%
N#Cc1cccc(S(=O)(=O)N2CCc3n[nH]c(=O)n3CC2)c1	0%
Cc1ccc(C2Cn3nnc(-c4noc(-c5ccccc5C)n4)c3CO2)cc1 (stereo unspecified)	0%
N#Cc1ccc(CNC(=O)[C@@H]2Cc3nc[nH]c3CN2C(=O)CCC(=O)O)cc1	6%[70.6 µM]
COCCCNC(=O)C1CCN(C(=O)c2nnn3c2COC(c2ccc(C)cc2)C3)CC1 (stereo unspecified)	-2%
Cc1nn2c(c1-c1ccccc1OCc1ccccc1)N(Cc1ccc(C(=O)O)s1)CCC2	6.3µM*
Cc1ccc(CNC(=O)CC2=C3CCCCC3NC2=O)o1 (stereo unspecified)	0%
CNC(=O)[C@@H]1CN(S(=O)(=O)c2ccc3c(c2)CCC3)C[C@H]1c1n[nH]c(C)n1	-2%
COCCn1ncc(N2CCCC(CC(=O)NCCC3=CCCCC3)C2)cc1=O (stereo unspecified)	3%
O=C(CN1C(=O)NC2(CCOCC2)C1=O)Nc1ccccc1Cl	15%
COc1ccc(-c2cc(N3CCCC(NC(=O)c4ccc(C)s4)C3)n[nH]2)cc1 (stereo unspecified)	-14%
Cc1ccccc1C(=O)N1CCN(C(=O)c2nnn3c2COC(c2ccccc2)C3)CC1 (stereo unspecified)	-20%
CCn1ccc(C(=O)N2CCC(C(=O)N3CCCCCCNC(=O)CC3)CC2)n1	0%
Cc1nc2ncnn2c(C)c1CCC(=O)NCc1cc2n(n1)CCCNC2	6%
Cc1cc(C)c(CNC(=O)c2cc(-c3ccccc3)cc3c2OCCN3C)c(=O)[nH]1	-14%[70.6 µM]
O=C(NC1CCS(=O)(=O)C1)C1CCCCC(=O)N1Cc1ccccc1 (stereo unspecified)	6%

Part of the list above, field by field.
> CC(C)(C)CN[C@H]1C[C@@H](Cc2cc(CN3CCOCC3)on2)C1(C)C
  NPR1 antag: -1%[70.6 µM]

> CN1CCC(NC(=O)c2cccc3c2CCN3C(=O)C2CC2)CC1
  NPR1 antag: 4%

> COc1ccccc1C(=O)N1[C@@H]2CC[C@H]1CC(NC(=O)c1ccncc1)C2 (stereo partly specified)
  NPR1 antag: 1%

> CCC1Oc2ccc(NC(=O)c3c(F)cccc3F)cc2CN(Cc2ccc3c(c2)OCO3)C1=O (stereo unspecified)
  NPR1 antag: -6%

Continued.
SMILES	NPR1 antag
CCOCCN1C(=O)COC[C@@H]1[C@H](O)c1ccc(NC(=O)c2ccccc2OC)cc1	-1%[70.6 µM]
Cc1cc(=O)n(CC(=O)Nc2cc(Cl)ccc2C)c(N2CCc3ccccc3C2)n1	-13%
COCCCNC(=O)CCCN1C(=O)COc2ccc(C(=O)COc3ccc(OC)cc3)cc21	0%
O=[S+]1([O-])NCC2(CCN(CC3CCCCC3)CC2)Nc2ccccc21	0%
COc1ccc(C2(C(=O)N3CCCC(Cn4c(C)nc5cccnc54)C3)CCCCC2)cc1 (stereo unspecified)	1%
CCOC(=O)CC1CCCCN1S(=O)(=O)Cc1ccccc1F (stereo unspecified)	-2%
O=S(=O)(Cc1ccccc1)N1CCC(OC2CCN(Cc3ccccc3)CC2)CC1	-4%
O=C([C@@H]1C[C@H](Oc2ccccc2)CN1C(=O)c1cnccn1)N1CCOCC1	-2%
COCCN1Cc2ccc(Nc3cccnc3)nc2C(C)(C(=O)Nc2cccc(F)c2)C1 (stereo unspecified)	-15%[70.6 µM]
